Source: PubChem BioAssay
MgrA-DNA mod: S. aureus MgrA activity modulators, primary screen, biochemical, S. aureus Newman, fluorescence polarization | MgrA-DNA binding | inhibition, %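 (about 10 µg/mL by stock and volumes)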 | 84,000 tested, 0.13% active;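 active means above 50% in either of two replicates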;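 further: 0% = protein plus DNA without compound and 100% = DNA alone without protein; higher means less MgrA bound to DNA so lower polarization; one replicate is shown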
Sa helicase inh: inhibitors of S. aureus replicative helicase, primary screen, biochemical, fluorescence unwinding readout | 120,000 tested, 0.05% active | purified S. aureus helicase, fluorescence unwinding assay; about half of the hits fall short of the stated cut | replicative DNA helicase (DnaC/DnaB), Staphylococcus aureus | AID 485395, 2010 | inhibition, %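 (tested at about 80 µM)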;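 active means both duplicates at 50% or more, or one of them with a favoured structure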;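 further: 0% = mean of negative control wells and 100% = mean of positive control wells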
Starred values were filed as active, the others as inactive; . = no result given; & = joins results of further samples. Some of the compounds tested, so the mix of outcomes need not match the whole.

entry	SMILES	MgrA-DNA mod	Sa helicase inh
1	CCOC(=O)N1CCC(N=Cc2ccc(OC(C)C)cc2)CC1	-0.3	2
2	CCc1nc2ccccc2c(C(=O)OCC(=O)c2ccccc2)c1C	-1.1	-10
3	O=S(=O)(NCc1ccccc1)c1ccc2c(c1)OCCO2	-1.0	17
4	CCCCn1nc(C(=O)N2CCN(S(=O)(=O)c3ccccc3)CC2)c2ccccc2c1=O	.	16
5	COc1ccc(-n2cnnc2SC(C)C(=O)N2CC(C)CC(C)C2)cc1 (configuration not stated)	.	-5
6	Clc1ccc(N=c2scc(-c3cccs3)n2CCCN2CCOCC2)cc1	.	1
7	OC1(c2ccccc2)C2CC3CC(C2)CC1C3 (configuration not stated)	2.6	7
8	O=c1oc(Nc2ccc(C(F)(F)F)cc2)nc2ccccc12	0.2	.
9	O=C1CCCC(O)=C1C=Nc1cccc2ccccc12	-1.0	21
10	Cc1csc(-c2nc(-c3ccc(C(F)(F)F)cc3)no2)c1	-0.2	.
11	Cn1c(=O)oc2cc(S(=O)(=O)N3CC=C(c4ccccc4)CC3)ccc21	.	-36
12	CC1=NN(c2ccccc2)C(=O)/C1=C/c1c(C)[nH]n(-c2ccccc2)c1=O	-2.8&0.9	3
13	CC(=O)N1c2ccc(S(=O)(=O)NCC3CCC(C(=O)NC4CCCC4)CC3)cc2CC1C (configuration not stated)	.	-16
14	O=S(=O)(NCc1ccc(Cl)cc1Cl)c1ccc(N2CCOCC2)nc1	.	-5
15	O=C(OCCCn1c(=O)[nH]c2ccccc21)c1ccc(S(=O)(=O)N2CCOCC2)cc1	.	-2
16	Cc1cc(C=C(C#N)C#N)c(C)n1-c1ccccc1	3.4	-3

4 entries from above, as labelled records.
9. O=C1CCCC(O)=C1C=Nc1cccc2ccccc12
  MgrA-DNA mod: -1.0
  Sa helicase inh: 21

10. Cc1csc(-c2nc(-c3ccc(C(F)(F)F)cc3)no2)c1
  MgrA-DNA mod: -0.2
  Sa helicase inh: .

11. Cn1c(=O)oc2cc(S(=O)(=O)N3CC=C(c4ccccc4)CC3)ccc21
  MgrA-DNA mod: .
  Sa helicase inh: -36

12. CC1=NN(c2ccccc2)C(=O)/C1=C/c1c(C)[nH]n(-c2ccccc2)c1=O
  MgrA-DNA mod: -2.8&0.9
  Sa helicase inh: 3

Later entries
entry	SMILES	MgrA-DNA mod	Sa helicase inh
17	N/C(=N\S(=O)(=O)c1ccc(Cl)cc1)Nc1nc2ccccc2o1	.	-10
18	NC(=O)c1cc2c([nH]c1=O)CCCCCCCCCC2	0.9	0
19	Cc1ccc(CC(C(=O)O)C(C)C(=O)Nc2ccc(F)cc2)cc1 (configuration not stated)	-5.2	2
20	CCN1CCN(C(=O)c2cc(-c3ccccc3)nc3ccccc23)CC1	.	-14
21	CC(C)C(=O)Nc1ccccc1C(=O)O	-2.5	7
22	CC(=O)NCCCc1[nH]n(-c2ccccc2)c(=O)c1NC(=O)c1ccccc1	.	-2
23	C=CCn1c(=O)c2ccccc2n2c(SCc3c(C(=O)OC)sc(N)c3C(=O)OC)nnc12	.	-14
24	O=C(NCCN1CCOCC1)c1cc2ccccc2oc1=O	.	8
25	O=C(NCc1ccccn1)c1ccc2c(c1)CCN2S(=O)(=O)c1ccc(Cl)cc1	.	26
26	OC1CCN(c2ncc(C(F)(F)F)cc2Cl)CC1	2.1	.
27	CC(Oc1ccccc1)c1nn2c(-c3cccnc3)nnc2s1 (configuration not stated)	-2.1	2
28	N#CC(=C1C(=O)c2ccccc2C1=O)c1nc2ccccc2[nH]1	60*	21
29	O=S1(=O)CCC(NC(=S)Nc2ccccn2)C1 (configuration not stated)	2.5	12
30	O=C(Cn1c(CO)nc2ccccc21)NCC(F)(F)F	.	9
31	c1ccc(-c2cccnn2)cc1	-2.2	.
32	Cc1cccc(CC2SC(=Nc3ccccc3)NC2=O)c1 (configuration not stated)	0.1	.
33	NCCSc1nnc2c(n1)[nH]c1ccccc12	3.2	8
34	NNc1ncnc2ccccc12	.	18
35	O=C(O)C(Cc1c[nH]c2ccccc12)Nc1ncnc2c1oc1ccccc12 (configuration not stated)	1.0	3
36	O=C(NN=C(c1ccccc1)c1ccccc1)c1ccco1	-1.2	16
37	O=C(C1=CC2Cc3ccccc3C2C=C1)c1cccc(Br)c1 (configuration not stated)	-1.8	11
38	CCC1=CC(C)(CC)Nc2cc(C)ccc21 (configuration not stated)	2.2	13
39	COc1ccc(-c2csc(/C(C#N)=C(\O)CSc3nccn3C)n2)cc1OC	.	5
40	CC(C)(C)/C(N)=N/S(=O)(=O)c1cc(C(F)(F)F)cc(C(F)(F)F)c1	3.1	.
41	CCOc1ccc(NC(=O)COC(=O)c2cccc(OC)c2)cc1	.	10
42	O=c1c2c(-c3ccccc3)csc2ncn1-n1cccc1	-1.8	-14
43	O=C(Nc1ccccc1)c1cnc(-c2ccc3c(c2)CCO3)s1	-4.1	.
44	CC(=O)N1c2ccc(S(=O)(=O)NC(Cc3ccccc3)C(=O)N3CCCCC3)cc2CC1C (configuration not stated)	.	-25
45	COc1cc2c3c(c1OC)C1(C=CC(=O)C=C1)CC3N(C(C)=O)CC2 (configuration not stated)	.	-46
46	NCCSCc1c(Cl)cccc1Cl	-1.2	.
47	Cc1cccc(NC(=O)CNC(=O)CSc2nnnn2-c2ccccc2)c1C	.	-9
48	COC(=O)C1CCN(C(=O)CCOc2ccc(OC)cc2)CC1	-2.2	19
49	CC(=O)N(CN1C(=O)CCC1=O)c1ccc(Cl)c(Cl)c1	-2.6	-2
50	CCn1cc(SCC(=O)NC2CCCCC2)c2ccccc21	.	-15
51	CCn1ncc2c1N1COCN(C2)c2c(cnn2CC)C1	.	-2
52	O=C(CC(O)(c1ccccc1)C(F)(F)F)c1cccs1 (configuration not stated)	.	-12
53	CN1CCC(N(C)C(=S)Nc2ccccc2)CC1	-1.4	11
54	O=C(Nc1cc2ccc(O)cc2oc1=O)c1cccc(C(F)(F)F)c1	-1.8	.
55	O=C(Cc1ccccc1)c1cc(O)c(O)cc1O	.	2
56	COCCN(C(=O)c1noc2c1CCCCC2)C1CCN(C(C)=O)CC1	.	32
57	COc1ccc(OC)c(S(=O)(=O)NNC(=S)Nc2ccc3c(c2)OCO3)c1	5.8	13
58	CC(O)CNc1ncnc2nc[nH]c12 (configuration not stated)	.	16
59	CCN1CCN(C(=O)c2ccc(CNS(=O)(=O)c3ccc(Br)cc3)cc2)CC1	.	-7
60	N#CCNc1ccccc1	.	7
61	O=C(NC(C(=O)O)c1ccccc1)c1cccs1 (configuration not stated)	.	0
62	CNC(=O)CSCc1c(C)noc1C	.	10
63	NC(=O)COC(=O)c1cccc(S(=O)(=O)N2CCc3ccccc32)c1	.	7
64	O=C(N/N=C1/CSC(=O)N1Cc1cccs1)c1cccs1	-0.9	14
65	Cc1cc(C)n(-c2nc3ccccc3nc2N2CCN(S(=O)(=O)c3ccccc3)CC2)n1	.	31
66	CCN(CC)C(=O)c1csc(-c2ccccc2)c1-c1ccccc1	.	5
67	COC(=O)c1nnn(CC(=O)Nc2ccc(OC)cc2)c1N	-1.5	10
68	N#C/C(=C\c1ccc(C(F)(F)F)cc1)c1cccc(C(F)(F)F)c1	0.0	.
69	NC(=O)c1sc2nc3c(cc2c1N)C(=O)CCC3	.	-22
70	COc1ccc(N(CC(=O)N2CCN(c3ccccc3OC)CC2)S(=O)(=O)c2ccccc2[N+](=O)[O-])c(OC)c1	4.4	.
71	CSc1nc2c(c(=O)[nH]1)C(c1ccc3c(c1)OCO3)CC(=O)N2 (configuration not stated)	0.8	3
72	COC(=O)c1cc(C(=O)c2ccccc2)n2c(=O)/c(=C\N(C)C)sc12	.	-4

(continued)
entry	SMILES	MgrA-DNA mod	Sa helicase inh
73	CCOc1cc(C)nc(NCCc2ccc(OC)c(OC)c2)n1	-0.9	6
74	COc1cc(NC(=O)C2=C(N3CCOCC3)/C(=C\c3ccc(N(C)C)cc3)CCC2)cc(OC)c1OC	.	-22
75	Cc1cc(/C=N/n2c(SCC(=O)O)nnc2C2CCCCC2)c(C)n1CC(C)C	.	8
76	S=C(NCc1ccco1)NCC1CCCO1 (configuration not stated)	3.4	12
77	CCn1c(CNC(=O)N(c2ccccc2)c2ccccc2)nnc1SC	4.7	7
78	O=C(O)Cc1c[nH]c2ccccc12	1.4	.
79	Cc1ccc(CNC(=O)C2CCCN(S(=O)(=O)c3c(C)noc3/C=C/N(C)C)C2)cc1 (configuration not stated)	.	25
80	O/N=C(\c1ccccc1)C(O)c1ccccc1 (configuration not stated)	.	-2

Some of the entries so far, with values ahead of the structure:
cpd	MgrA-DNA mod	Sa helicase inh	smiles
74	.	-22	COc1cc(NC(=O)C2=C(N3CCOCC3)/C(=C\c3ccc(N(C)C)cc3)CCC2)cc(OC)c1OC
75	.	8	Cc1cc(/C=N/n2c(SCC(=O)O)nnc2C2CCCCC2)c(C)n1CC(C)C
76	3.4	12	S=C(NCc1ccco1)NCC1CCCO1 (configuration not stated)
77	4.7	7	CCn1c(CNC(=O)N(c2ccccc2)c2ccccc2)nnc1SC
78	1.4	.	O=C(O)Cc1c[nH]c2ccccc12
79	.	25	Cc1ccc(CNC(=O)C2CCCN(S(=O)(=O)c3c(C)noc3/C=C/N(C)C)C2)cc1 (configuration not stated)

New compounds follow.
entry	SMILES	MgrA-DNA mod	Sa helicase inh
81	c1ccc(-c2nnc(-c3cccc4ccccc34)o2)cc1	0.2	.
82	CN1C(=O)/C(=C/c2ccc(C(=O)NCc3ccccc3)cc2)Oc2ccccc21	-2.5	-4
83	CCCC1c2ccc(C)n2CCN1C(=O)NCc1ccccc1 (configuration not stated)	-4.7	9
84	N=S(N)c1c(O)c2ccccc2oc1=O (configuration not stated)	.	7
85	O=c1cnnc(Nc2ccccc2)[nH]1	-0.4	17
86	CC1=C(C#N)C(c2ccccc2N2CCOCC2)C2=C(CCCC2=O)N1 (configuration not stated)	-0.3	.
87	Cc1nn(C)c2sc(C(=O)NC3CCCCNC3=O)cc12 (configuration not stated)	0.1	.
88	CC(=O)Nc1ncccc1OC(C)=O	4.0	.
89	CCOC(=O)c1ccc(NC(=O)C2COc3ccccc3O2)cc1 (configuration not stated)	0.8	.
90	Cc1nc(-c2coc3cc(O)ccc3c2=O)cs1	.	-19
91	COc1ccc(Nc2cc(C(=O)NCCc3ccccc3)c3ccccc3n2)cc1	-1.6	11
92	Cc1cc2c3c(c1)c(-c1ccccc1)c(C)n3CCC2	2.3	6
93	CCOC(=O)C1=C(C)N=c2s/c(=C\c3cc(Br)cc(OC)c3O)c(=O)n2C1c1cccs1 (configuration not stated)	0.6	.
94	Cc1ccccc1OCc1nnc(SCC(=O)Nc2ccnn2C2CCCC2)n1-c1ccccc1	.	16
95	CNCC(O)Cn1c(C(F)(F)F)nc2ccccc21 (configuration not stated)	1.4	-15
96	O=C1c2ccc(F)cc2C(=O)N1C1CC1	.	12
97	Cc1nnc(NCc2ccccc2)c2ccccc12	0.7	-3
98	C=CCOC(c1ccccc1)c1nc2ccccc2n1CC=C (configuration not stated)	-0.9	3
99	Cc1ccc(NCC(O)CN)c(Br)c1 (configuration not stated)	-0.9	-3
100	Cc1cc(C(=O)COC(=O)C2CC(=O)N(Cc3ccccc3)C2)c(C)n1Cc1cccs1 (configuration not stated)	.	7
101	CCOC(=O)c1cc(-c2ccc(Cl)cc2)oc1C(F)(F)F	2.0	.
102	Nn1c(SCc2ccccc2)nnc1-c1ccco1	.	6
103	Nc1ccccc1N1C(=O)c2ccccc2C1=O	-1.2	0
104	O=c1cc(-c2ccco2)oc2c1ccc1ccccc12	-1.7	14
105	COC(=O)Cc1csc(NC(C)(C)C)n1	.	-15
106	O=c1cc(-c2ccccc2)nc2cc(-c3ccccc3)[nH]n12	-0.8&-1.2	2
107	CCN(CC)Cc1c(O)ccc2c(=O)c(-c3ccccc3Cl)coc12	.	23
108	COc1ccccc1C(CC(=O)O)c1ccco1 (configuration not stated)	-6.5	1
109	CC(O)c1ccc(-n2cccc2)cc1 (configuration not stated)	-0.1	.
110	CCOC(=O)C1(CC)CC(C)(c2csc(N)n2)OC1=O (configuration not stated)	7.2	6
111	O=C(Nc1cccc2ccccc12)C1CCCCN1S(=O)(=O)c1ccccc1 (configuration not stated)	.	-8
112	O=C(O)c1ccc(NC(=O)C2CC(=O)N(Cc3ccc(Cl)cc3)C(=Nc3ccccc3)S2)cc1 (configuration not stated)	7.2	.
113	CC(=O)Nc1ccc(OCC(=O)O)cc1	.	9
114	O=C(NCCN1CCOCC1)c1ccc2c(=O)n(Cc3ccc(Cl)cc3)c(=S)[nH]c2c1	.	-16
115	C/C(=N\N)c1ccc2ccccc2c1	-0.6	-15
116	CNC(=S)Nc1cc(Cl)ccc1OC	4.2	27
117	O=[N+]([O-])c1ccc(/C=N/Nc2ccccc2)cc1	-2.5	.
118	N#Cc1c(N)nc(-c2ccccc2)nc1C(F)(F)F	.	-14
119	c1ccc2c(c1)[nH]c1nc(NN=C3CCC(=NNc4nnc5c(n4)[nH]c4ccccc45)CC3)nnc12	0.6	7
120	CCCC1=NN(c2ccccc2)C(=O)C1	-0.8	.
121	C=CCn1c(-c2cccs2)nc2ccccc21	-1.3	-1
122	N#Cc1c2c(c(NCCN3CCCCC3)n3c1nc1ccccc13)CCC2	0.1	0
123	CCCCN(C)C(=O)CN1C(=O)c2cccnc2Oc2ccc(C)cc21	.	7
124	COc1ccc(N2CCN(C(=O)c3ccccc3I)CC2)cc1	-2.8	5
125	O=C(NCc1ccccc1C(F)(F)F)C1CCN(c2ncccn2)CC1	.	13
126	CC(=O)N1CCN(Cc2cnc(Cl)s2)CC1	-0.6	.
127	CCn1c(SC)nnc1C1CCN(CC(=O)N(c2ccccc2)c2ccccc2)CC1	-1.8	2
128	CC1=C(C(=O)OCc2ccc3c(c2)OCO3)C(c2ccc(N(C)C)cc2)NC(=O)N1 (configuration not stated)	-0.6	.
